RecA intein inh: blocks M. tuberculosis RecA intein splicing | P9WHJ3 | cell-free RecA intein splicing, fluorescence | inhibition, %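 (about 9 µM by stock and volumes)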 | 0.75% of 290,000 active | AID 2221; in the data active = inhibition above about 30%;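 also: 0% = vehicle wells and 100% = reference inhibitor control wells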
Target sequence (P9WHJ3 whole entry, looked up): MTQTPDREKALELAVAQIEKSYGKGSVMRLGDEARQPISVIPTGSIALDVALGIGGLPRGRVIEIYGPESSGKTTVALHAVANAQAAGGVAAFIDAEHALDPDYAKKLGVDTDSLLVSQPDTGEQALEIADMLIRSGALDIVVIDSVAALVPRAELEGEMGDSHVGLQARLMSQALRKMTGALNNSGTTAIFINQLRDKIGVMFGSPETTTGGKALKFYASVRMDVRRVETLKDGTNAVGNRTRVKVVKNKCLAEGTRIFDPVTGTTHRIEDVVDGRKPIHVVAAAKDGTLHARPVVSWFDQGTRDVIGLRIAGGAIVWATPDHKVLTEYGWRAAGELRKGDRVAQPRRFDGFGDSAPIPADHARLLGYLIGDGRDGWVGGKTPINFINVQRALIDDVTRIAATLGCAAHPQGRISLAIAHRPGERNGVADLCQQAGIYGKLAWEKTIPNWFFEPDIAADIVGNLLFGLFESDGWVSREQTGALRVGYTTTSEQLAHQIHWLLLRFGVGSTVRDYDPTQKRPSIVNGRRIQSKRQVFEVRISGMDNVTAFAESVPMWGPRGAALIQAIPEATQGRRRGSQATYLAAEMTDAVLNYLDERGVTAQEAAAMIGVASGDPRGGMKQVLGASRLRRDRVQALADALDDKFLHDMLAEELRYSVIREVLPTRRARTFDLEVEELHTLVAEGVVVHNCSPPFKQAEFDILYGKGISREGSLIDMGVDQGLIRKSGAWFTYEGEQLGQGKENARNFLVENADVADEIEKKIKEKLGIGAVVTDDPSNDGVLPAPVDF
Mtb bLac sens: beta-lactam sensitization of Mtb H37Rv | M. tuberculosis H37Rv growth with meropenem, percent inhibition; hits of this screen are not shown here | inhibition, % at 25 µM | 0.27% of 330,000 active | AID 434955;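 active = about 74% or more and at least 40 points above the plate without the antibiotic, then above 30% in a dose series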;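 also: growth measured after seven days incubation then overnight dye step; 0% = bacteria only wells and 100% = bacteria with antibiotic; twin plates without the antibiotic show which effects depend on it; some results filed as inactive read as strong as hits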
Arbovirus anti: antivirals against arbovirus infection; arbovirus infection cell-based antiviral screen; AID 1251; inhibition, % at 10 µM; 0.37% of 200,000 active;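 active = inhibition from about 30%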;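 also: bluetongue infection of BSR cells; cell survival read as ATP light after 72 h; 0% = infected wells without compound and 100% = uninfected wells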
Mtb H37Rv: M. tuberculosis H37Rv growth inhibitors, H37Rv strain (AID 1626). M. tuberculosis H37Rv growth inhibition; higher % means a stronger effect. inhibition, % at 10 µM, or IC50 in µM where a hit was titrated. 0.95% of 220,000 active;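 active = confirmed in a dose series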;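 also: bacteria incubated seven days before Alamar blue readout; 0% = bacteria only wells and 100% = bacteria with antibiotic wells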
YopH PTP inh: blocks Yersinia enterocolitica YopH tyrosine phosphatase; fluorescence Ex485/Em525; inhibition, %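 (about 10 µM by stock and volumes)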; 0.16% of 140,000 active; AID 898;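 active = inhibition of 50% or more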;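 also: controls were vehicle for no effect and minimum signal wells for full effect; inactives centre near -20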
Arbovirus anti repeat: recorded beside Arbovirus anti, whose call it bears; inhibition, %; measured here: 10K subset replicate screen; many hits read low in the repeat;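 first of two repeat runs on a subset; 0% = infected and 100% = uninfected wells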
Numbers without * were called inactive; nt = no result given.

SMILES	RecA intein inh	Mtb bLac sens	Arbovirus anti	Mtb H37Rv	YopH PTP inh	others
Cc1ccc(CN2CCN(Cc3cc(=O)c4ccccc4[nH]3)CC2CCO)o1 (centres undefined)	0.8	-7.0	-2.4	-7.7%	nt
C=CCn1cc(C(=O)N2CCN(CC)CC2)c(=O)c2cc(S(=O)(=O)N(CC)CC)ccc21	-0.7	-5.6	nt	nt	nt
CCCC(C(=O)NC1=NCCS1)c1ccccc1 (centres undefined)	0.8	2.7	6.5	3.2%	nt
CC(=O)N1CCN(c2ccccc2NC(=O)c2cc(Br)ccc2Cl)CC1	4.3	2.1	3.2	6.8%	-1.2
CCN1CCN(c2ccc(S(=O)(=O)N3CCCCC3)cc2NC(=O)COc2cc(C)ccc2Cl)CC1	4.5	47.1	nt	nt	nt
CCOC(=O)Cc1csc(SCC(=O)Nc2cc(Cl)ccc2Oc2ccccc2)n1	7.8	-2.5	1.1	2.9%	-6.2
Cc1c(NC(=S)N/N=C/c2ccc(Br)cc2)c(=O)n(-c2ccccc2)n1C	-2.9	-6.0	nt	nt	nt
COc1cc(OC)cc(C(=O)NC2=NCCS2)c1	-1.6	2.1	-2.5	-0.1%	-5.6
CCOc1ccccc1N=Nc1c(C)[nH]n(-c2ccccc2)c1=O	2.3	3.2	nt	nt	nt
COCCCn1c(CCC(=O)O)ccc1-c1ccc(F)cc1	-3.9	2.1	7.9	-3.7%	-35.5
Cc1cc(C=C2C(=O)N(C)C(=S)N(C)C2=O)c(C)n1C1CCCC1	-2.3	82.8	14.3	1.9%	-15.8
O=C(O)c1cccc(NS(=O)(=O)c2ccc(-c3ccc(S(=O)(=O)Nc4cccc(C(=O)O)c4)cc3)cc2)c1	-7.2	-3.8	17.5	0.1%	nt
Cc1ccc(OC(=S)Nc2ccc(F)cc2)cc1	4.3	8.6	4.6	-6.2%	12.0
COc1cc(OC)c2c(c1C(CCN1CCOCC1)c1ccc(N(C)C)cc1)OC(=O)CC2c1ccc(N(C)C)cc1 (centres undefined)	2.3	-5.0	nt	-4.0%	nt
Cc1c(NC(=O)c2ccccc2NS(=O)(=O)c2ccc(F)cc2)c(=O)n(-c2ccccc2)n1C	1.0	1.5	4.1	-11.1%	-56.2
O=C(Nc1ccc(CN2CCS(=O)(=O)CC2)cc1)c1ccc(Cl)cc1	-0.8	-6.6	nt	2.0%	nt
CC(C)CC(=O)Nc1ccc2oc(-c3cccnc3)nc2c1	-4.8	16.4	-8.2	-7.8%	-43.2	Arbovirus anti repeat=1.2
COc1ccc(CNCCNC(=O)c2ccco2)c(OC)c1OC	nt	-2.8	2.0	-7.5%	-29.1
C[C@@H]1CC=C[C@H]2[C@H]1C(=O)N(Cc1ccccc1)[C@H]2c1ccc(-c2ccc(F)cc2)cc1F	1.2	9.7	nt	21.7%	nt
Cc1cc(C(=O)NP(=O)(N2CCOCC2)N2CCOCC2)c(C)n1C1CC1	-3.9	13.1	10.1	8.1%	nt
CCC(=O)c1ccc(OCCn2cncn2)cc1	0.0	3.5	-1.5	7.9%	-23.1
COC(=O)c1c(NC(=O)c2ccc(Br)o2)sc(C)c1C	-3.7	4.1	-0.9	-6.2%	-3.1
COc1cccc(C(=O)C[n+]2ccccc2/C=N/O)c1	-17.9	5.0	-5.3	2.5%	-22.3
COc1cc(/C=C2/C(=N)N3OC(C)=CC3=NC2=O)ccc1OC(=O)c1ccco1	-0.2	60.6	5.8	nt	nt
Cc1ccc(C)c(CSc2nnc([C@@H](N)C(C)C)o2)c1	4.7	-7.9	3.9	-7.0%	-31.6

The final 7 compounds of the section before come first, to join the parts.
SMILES	RecA intein inh	Mtb bLac sens	Arbovirus anti	Mtb H37Rv	YopH PTP inh	others
C[C@@H]1CC=C[C@H]2[C@H]1C(=O)N(Cc1ccccc1)[C@H]2c1ccc(-c2ccc(F)cc2)cc1F	1.2	9.7	nt	21.7%	nt
Cc1cc(C(=O)NP(=O)(N2CCOCC2)N2CCOCC2)c(C)n1C1CC1	-3.9	13.1	10.1	8.1%	nt
CCC(=O)c1ccc(OCCn2cncn2)cc1	0.0	3.5	-1.5	7.9%	-23.1
COC(=O)c1c(NC(=O)c2ccc(Br)o2)sc(C)c1C	-3.7	4.1	-0.9	-6.2%	-3.1
COc1cccc(C(=O)C[n+]2ccccc2/C=N/O)c1	-17.9	5.0	-5.3	2.5%	-22.3
COc1cc(/C=C2/C(=N)N3OC(C)=CC3=NC2=O)ccc1OC(=O)c1ccco1	-0.2	60.6	5.8	nt	nt
Cc1ccc(C)c(CSc2nnc([C@@H](N)C(C)C)o2)c1	4.7	-7.9	3.9	-7.0%	-31.6
CCC(CC)NC(=O)CN(c1ccccc1OC)S(=O)(=O)c1cccs1	1.3	0.3	nt	1.0%	nt
CCOc1cc(/C=N/n2nnnc2N)ccc1OCc1c(C)no[n+]1[O-]	-0.5	-2.0	-1.6	-1.6%	-20.7
C=CCOC(=O)C1=C[C@@H](c2cn(C(C)=O)c3ccccc23)C[C@@H](OCc2ccc(CO)cc2)O1	7.3	8.5	nt	1.1%	nt
c1ccc(-c2ncc(CSc3nncn3-c3ccccc3)s2)cc1	4.5	-7.1	4.9	5.0%	-22.8
CC[C@H](C)[C@@H]1NC(=O)c2cc([N+](=O)[O-])cc(F)c2OCC[C@@H](C(N)=O)NC(=O)[C@H](CCCCN)NC1=O	-0.9	2.4	-2.1	-10.7%	-28.0
O=C(COC(=O)c1cccnc1Cl)Nc1cc(S(=O)(=O)N2CCCCC2)ccc1Cl	-2.3	4.8	3.7	5.7%	nt
c1ccc(Cc2nn3c(C4COc5ccccc5O4)nnc3s2)cc1 (centres undefined)	0.8	-8.7	15.4	-3.7%	-18.5
CCCn1c(=N)n(CC(=O)O)c2ccccc21	1.1	-8.2	5.2	-4.6%	-26.4
Cc1ccsc1C1C(C#N)=C(N)N(N(C)C)C2=C1C(=O)CC(C)(C)C2 (centres undefined)	-1.4	0.0	1.5	7.5%	nt
c1ccc(NC(=NCc2ccco2)c2ccccc2)cc1	nt	-5.9	-3.7	-7.8%	-42.4
O=C(c1ccc(S(=O)(=O)Cc2ccccc2Cl)c([N+](=O)[O-])c1)N1CCN(c2ccccn2)CC1	15.9	18.9	-21.4	13.0%	nt
CCOC(=O)c1c(NC(C)=O)sc2c(O)c(Br)cc(Br)c12	5.6	1.7	20.2	18.6%	-30.3
CCOc1ccc(/C(O)=C2/C(=O)C(=O)N(CCN(C)C)C2c2ccccc2)cc1Cl (centres undefined)	0.2	-6.8	4.9	-3.5%	-17.5
O=C(CC1Nc2ccccc2NC1=O)Nc1ccccc1 (centres undefined)	6.6	-8.0	-5.2	nt	-19.2
CCCCC(CC(O)COCC(C)C)C(=O)NN (centres undefined)	-0.2	-3.3	-1.5	-5.3%	nt
Cc1ccccc1NC(=O)c1ccc(CN(c2ccccc2)S(=O)(=O)c2ccccc2)cc1	2.5	nt	-2.7	44.8%	-45.5
CCOc1ccc(OCC)c(NS(=O)(=O)c2cccc3nsnc23)c1	5.2	0.4	0.7	-6.4%	-31.4	Arbovirus anti repeat=-3.3
Cn1c(=O)c(C(=O)NCc2ccc(Cl)cc2)c(O)c2ccccc21	-6.0	2.1	nt	nt	nt
CCN(C(=O)c1cc(S(=O)(=O)N2CCc3ccccc32)cn1C)c1ccccc1	-4.5	-5.6	nt	nt	nt
Oc1ccc(N2CCN(C(=S)NCc3ccccc3)CC2)cc1	-2.6	-3.1	-12.0	-8.1%	nt
CCOC(=O)c1sc(NC(=O)CSc2nc3c(cc2C#N)CCCCC3)c(C#N)c1C	1.9	-13.1	5.5	4.4%	-19.2
COc1cc(/C=C2\N=C(c3ccccc3)OC2=O)ccc1OC(C)=O	-7.2	65.8	nt	nt	nt
O=C(c1ccco1)N1N=C(c2ccc3nccnc3c2)CC1c1ccccc1 (centres undefined)	4.2	10.1	-1.5	12.8%	nt
Cc1ccc(-n2c(CNC(=O)c3cccs3)nnc2SCC(=O)NO)cc1	-4.3	7.2	-3.7	2.8%	nt
COc1ccc(NC(=O)C(Cl)=C(Cl)Cl)cn1	5.8	nt	1.1	0.1%	nt
(next part)
SMILES	RecA intein inh	Mtb bLac sens	Arbovirus anti	Mtb H37Rv	YopH PTP inh	others
CC(=O)N(Cc1ccccc1)c1nc(-c2ccccc2)cs1	0.3	10.0	-10.2	1.2%	nt
CN(Cc1ccc(Cl)cc1)C(=O)c1ccc2ccccc2n1	2.6	3.2	nt	nt	nt
COc1ccc(NC(=O)COc2ccc(C)c(C)c2)cc1S(=O)(=O)N1CCCCC1	1.9	-18.1	nt	nt	nt
CCCCOc1ccc(/C=N/NC(=O)c2csc(C)c2C)cc1	1.1	-1.8	2.6	11.7%	-4.0
COC(=O)c1sccc1NC(=O)c1cc(-c2cccc(C)c2)nc2ccccc12	-1.6	43.4	-7.6	2.6%	-24.9
O=C1NC(NS(=O)(=O)c2ccccc2)(C(F)(F)F)C(=O)N1c1ccc(F)cc1 (centres undefined)	0.4	0.2	-0.3	5.7%	-32.4
Cc1[nH][nH]c(=O)c1C(c1c(C)[nH][nH]c1=O)c1cn(Cc2cccc3ccccc23)c2ccccc12	nt	95.4	-17.6	8.5%	-26.6
Cc1cccc(-n2c(-c3csc4ccccc34)n[nH]c2=S)c1	4.1	0.5	-1.6	2.0%	-15.3
CCOc1ccc(N(CC(=O)NN=C2CCN(C)CC2)S(C)(=O)=O)cc1	2.1	0.6	1.8	-7.5%	-25.3
COc1ccc(S(=O)(=O)Nc2ccc(OCC(=O)O)cc2)c2ccccc12	5.0	3.2	nt	nt	nt
CN(C(=O)c1cc(S(=O)(=O)N2CCCCC2)c[nH]1)C1CCCCC1	-0.7	-0.2	nt	nt	nt
CCN(Cc1ccccc1)S(=O)(=O)c1ccc2oc(C(=O)O)c(C)c2c1	1.7	-8.6	12.2	-4.7%	-32.9
O=C(NNc1ccccn1)c1ccccc1CC[N+](=O)[O-]	-0.5	-3.0	-2.5	-0.9%	nt
CN(C)S(=O)(=O)c1cccc(C(=O)Nc2ccc(Cl)cn2)c1	1.9	-6.8	-1.3	-4.0%	-13.0
CO/N=C(/CS(=O)(=O)Cc1ccccc1Cl)c1ccc(Cl)cc1Cl	-1.3	2.8	0.5	8.1%	-15.8
CCCC(=O)NCc1ccc2c(c1)cc(C)n2C	7.6	2.1	4.0	-17.0%	-30.7
CCC(CC)c1nnc(NC(=O)C2CCCO2)s1 (centres undefined)	4.6	1.6	6.3	-2.1%	nt
O=C1NC(c2ccccc2Cl)=N/C1=C/c1ccco1	20.6	0.2	nt	-15.2%	nt
COc1ccc(C2(c3ccc(OC)cc3)NC(=O)N(CC(=O)NC3CCCC3)C2=O)cc1	1.6	-0.1	nt	nt	nt
Cc1ccccc1/C=C/c1nc2ccccc2c(=O)[nH]1	-0.2	-3.9	nt	-7.0%	nt
Cc1c(C(=O)NCCSCc2ccc(Cl)cc2Cl)cccc1[N+](=O)[O-]	3.7	0.6	2.6	nt	-4.2
COc1ccc(-n2cnc3sc4c(c3c2=O)CCCC4)cc1	2.3	2.1	-0.5	10.8%	nt
CCc1ccc(C(=O)COC(=O)CCc2nc3ccccc3c(=O)[nH]2)cc1	0.6	9.0	3.5	-4.7%	-29.5
Cc1nccn1CC(=O)N/N=C/c1cccc(O)c1	-1.2	4.0	7.9	-1.8%	-32.9
COc1ccc(C)cc1-n1nnnc1SCC(=O)Nc1cc(C)on1	-2.3	-4.3	-6.8	-13.1%	-26.0

Brought forward from above: two compounds, then new ones.
SMILES	RecA intein inh	Mtb bLac sens	Arbovirus anti	Mtb H37Rv	YopH PTP inh	others
Cc1nccn1CC(=O)N/N=C/c1cccc(O)c1	-1.2	4.0	7.9	-1.8%	-32.9
COc1ccc(C)cc1-n1nnnc1SCC(=O)Nc1cc(C)on1	-2.3	-4.3	-6.8	-13.1%	-26.0
CN(C)c1ccc(NC(=O)CN2C(=O)c3ccccc3C2=O)cc1	-1.0	7.3	nt	nt	nt
Cn1c2ccccc2c(=O)c2ccc(C#Cc3ccccn3)cc21	-30.3	11.7	nt	nt	nt
Cc1nc2ccccc2c(=O)n1NCc1cc(Br)cs1	0.5	-1.3	6.8	-7.4%	-3.1
CCc1nnc(NC(=O)COc2ccc(N(C)S(=O)(=O)c3ccc(C)cc3)cc2)s1	-1.6	nt	8.7	6.0%	nt
Cc1cc(NC(=O)COc2ccccc2)n(-c2ccccc2)n1	4.2	8.6	4.4	-5.5%	-19.3
CCCCOc1ccc(NC(=O)c2cc(F)c(F)cc2Cl)cc1	-1.8	95.8	-0.1	36.4%	-15.7
CN(Cc1nc2c(s1)CCCC2)C(=O)CCc1nnc(-c2ccc3c(c2)OCO3)o1	0.0	-7.6	nt	-12.0%	nt
CC1CCC(NC(=O)Nc2cccs2)CC1 (centres undefined)	3.4	1.3	3.6	0.3%	-12.5
O=C(CC1CCCCC1)NCc1ccccc1Cl	-0.7	-8.5	nt	nt	nt
CCC(C)c1ccccc1N1CC(C(=O)NCCc2ccc(OC)c(OC)c2)CC1=O (centres undefined)	0.1	-2.6	nt	nt	nt
CCOc1ccccc1CNC(=O)c1cc2occc2n1C	1.3	2.2	2.0	-0.7%	12.8	Arbovirus anti repeat=4.0

Some of the compounds tested. The share of hits here may be higher or lower than overall.
